Screening data deposited in PubChem BioAssay by ICCB-Longwood Screening Facility, Harvard Medical School.
Sa growth 42C – S. aureus growth inhibition at 42 and 30 °C, primary screen, LtaS inhibitor project, RN4220, two temperatures. OD600, 20 h, 42 °C; hits give low values. relative growth, % (no concentration beside the values). actives 0.53% (n = 170,000);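 active = growth at 42 °C up to 50% and 20 or more points under that at 30 °C, or under 10% at both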;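 note: 300 nL library stock went into each well; scaled to the means of positive and negative controls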
GIV-Gai inh – inhibitors of GIV peptide binding to Galpha-i3, primary screen, biochemical, fluorescence polarization, FITC-GIV GBA peptide, rat Galphai3 | 90 min; hits give low values; scaled: aluminum fluoride 0%, vehicle 100% | actives 0.42% (n = 210,000) | percent of control (FP), % (no concentration beside the values) | Guanine nucleotide-binding protein G(i) subunit alpha-3 (Rattus norvegicus), P08753 | AID 1224905, 2016;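 active = replicate mean at 85% of control or lower, very high polarization wells dropped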;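 note: wells of about 15 µL received 100 nL stock; the first replicate is given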
Target sequence (P08753 whole entry, looked up): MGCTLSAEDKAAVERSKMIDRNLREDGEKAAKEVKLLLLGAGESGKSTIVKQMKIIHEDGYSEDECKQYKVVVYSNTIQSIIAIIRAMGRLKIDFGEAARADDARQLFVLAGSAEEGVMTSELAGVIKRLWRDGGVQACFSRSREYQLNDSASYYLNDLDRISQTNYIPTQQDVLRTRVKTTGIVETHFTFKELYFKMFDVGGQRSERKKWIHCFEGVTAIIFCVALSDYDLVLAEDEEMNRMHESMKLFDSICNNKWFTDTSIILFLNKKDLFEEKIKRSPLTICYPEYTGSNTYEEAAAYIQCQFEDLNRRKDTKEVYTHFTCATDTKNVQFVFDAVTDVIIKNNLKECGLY
HCMV NEC inh – inhibitors of HCMV UL50-UL53 interaction, biochemical, HTRF; HCMV UL50-UL53 nuclear egress complex (human cytomegalovirus); normalized percent inhibition; inhibition, % (concentration not given with the values); actives 0.15% (n = 190,000); AID 1918969, 2023;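 active = both replicates at 50% or more, plus weaker picks with an unusually low signal ratio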;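 note: stock transfer was 100 nL into about 20 µL; 0% = negative control wells and 100% = wells with untagged competitor protein; inactives centre near -12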
Sa growth 42C second temp – further read-out of Sa growth 42C, marked with its call; relative growth, %; measured here: growth at 30 °C;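 optical density after 20 h as mean of two plates; 100% = untreated growth and lower means inhibition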
* marks the source's active call; other numbers are inactive results; . = not tested or not shown; & = joins results of further samples.

SMILES | Sa growth 42C | Sa growth 42C second temp | GIV-Gai inh | HCMV NEC inh
COc1ccc(-c2cc(C(=O)OCCN3CCOCC3)c3ccccc3n2)cc1 | 101 | 96 | . | -30
CC1(C(=O)NC2CCCC2)Cn2c(c(-n3cccc3)c3ccccc32)C(=O)N1CC1CCCO1 (stereo not drawn) | . | . | 103 | -20
Cc1cc(NCCC(C)C)n2c(nc3ccccc32)c1C#N | 83 | 81 | 100 | -15
COc1ccc(CNCc2ccc3c(c2)n(C)c(=O)n3C)cc1 | 109 | 90 | 105 | -11
Cc1ccc(C)c(N2CCN(C(=O)C3CCN(S(=O)(=O)c4ccc5[nH]c(=O)oc5c4)CC3)CC2)c1 | 98 | 88 | 106 | .
CCOC(=O)c1sc(/N=C/c2ccc(O)cc2O)cc1C | 103 | 95 | . | -29
CCC(C(=O)N1CCC(C)CC1)n1cnc2oc(C)c(C)c2c1=O (stereo not drawn) | . | . | 101 | -16
CCC1CN(C(=O)N2CCC(C(=O)NCc3ccc(OC)cc3OC)CC2)c2cc(C)ccc2O1 (stereo not drawn) | 112 | 87 | 102 | -9
Cc1ccc(-c2noc(-c3ccc(Nc4ccc5c(c4)OCCO5)nn3)n2)cc1 | . | . | 101 | -30
CCCC(=O)Nc1nncs1 | 117 | 106 | 100 | -43
Cc1ccc(CN(Cc2ccco2)C(=O)COc2c(C)cc(C)cc2C)cc1 | 85 | 87 | 102 | 2
Cc1sc2ncn(CC(=O)Nc3cccc(C(F)(F)F)c3)c(=O)c2c1S(=O)(=O)N1CCC(C)CC1 | 76 | 89 | 93 | -39
O=C(N1CCN=C1c1ccccc1)N1c2ccccc2Sc2ccccc21 | 86 | 100 | 100 | .
Cc1ccc(Sc2ccc(N3CCC(C(=O)Nc4ccc(C)c(F)c4)CC3)nn2)cc1 | 97 | 93 | 101 | -15
O=C(O)c1ccc2ncccc2c1 | 102 | 92 | 105 | .
CCOc1ccc2nc(NC(=O)c3ccccc3Cl)sc2c1 | 94 | 87 | . | -14
CCSc1nn(CC(=O)Nc2ccc3c(c2)OCCO3)c(N)c1S(=O)(=O)c1ccc(OC)cc1 | . | . | 101 | -7
N#CC(c1nc2ccccc2nc1N1CCCCC1)S(=O)(=O)c1cccs1 (stereo not drawn) | 75 | 29 | 107 | 1
Cc1cc(C(=O)Nc2cccc(C)c2C)c2c(C)nn(-c3cccc(F)c3)c2n1 | 86 | 84 | 100 | .
CCOC(=O)C1=C(C)N=c2s/c(=C\c3ccc(OC)c(OC)c3)c(=O)n2C1c1ccc(OC)c(OC)c1 (stereo not drawn) | . | . | 105 | -17

An excerpt from above in order of the Sa growth 42C second temp value, lowest first:
Structure | Sa growth 42C second temp
COc1ccc(CNCc2ccc3c(c2)n(C)c(=O)n3C)cc1 | 90
O=C(O)c1ccc2ncccc2c1 | 92
CCCC(=O)Nc1nncs1 | 106

Other entries:
SMILES | Sa growth 42C | Sa growth 42C second temp | GIV-Gai inh | HCMV NEC inh
CC(C)N(CCC#N)C(=O)Nc1ccc(F)cc1 | 96 | 91 | 103 | -26
C#CCN1C(=O)S/C(=C\c2ccc(OCc3ccc(C(=O)O)o3)cc2)C1=O | 104 | 87 | 102 | -134
CC(C)C(OC(=O)c1ccc2c(c1)NC(=O)C(C)(C)O2)C(=O)NC1CCCC1 (stereo not drawn) | 95 | 95 | 103 | -11
CC1CCN(CCNC(=O)C2CCCN(S(=O)(=O)c3cccc4nsnc34)C2)CC1 (stereo not drawn) | 93 | 93 | 101 | .
COc1ccc2sc(C)[n+](CCO)c2c1 | 79 | 72 | 109 | -16
CNC(=O)c1ccccc1NC(=O)c1cccc(S(=O)(=O)N2CCC(C)CC2)c1 | 84 | 82 | 98 | .
CCOC(=O)C1CCCCN1C(=O)CCc1c(C)nc2ncnn2c1C (stereo not drawn) | 94 | 81 | 99 | -1
Clc1ccc(Nc2nnc(Cc3ccncc3)c3ccccc23)cc1 | 88 | 73 | 98 | -36&-19
CCc1ccc(Nc2nc3ccccc3c3nncn23)cc1 | 105 | 81 | 101 | -14
O=C(COC(=O)C1(c2ccccc2F)CCCC1)NC1CC1 | 95 | 85 | . | -10

Random excerpt: two entries already listed
SMILES | Sa growth 42C | Sa growth 42C second temp | GIV-Gai inh | HCMV NEC inh
CCC1CN(C(=O)N2CCC(C(=O)NCc3ccc(OC)cc3OC)CC2)c2cc(C)ccc2O1 (stereo not drawn) | 112 | 87 | 102 | -9
CCOc1ccc2nc(NC(=O)c3ccccc3Cl)sc2c1 | 94 | 87 | . | -14

(continued)
SMILES | Sa growth 42C | Sa growth 42C second temp | GIV-Gai inh | HCMV NEC inh
O=C(c1cc2cccnc2n(Cc2ccc(F)cc2)c1=O)N1CCCCC1 | . | . | 107 | -10
CCOc1ccc(N2C(=O)c3cc4occc4n3CC2(C)C(=O)NC2CCCCC2)cc1 (stereo not drawn) | . | . | 102 | 7
CN(C)c1nc2ncnc(SCC(=O)Nc3ccc4c(c3)CCC4)c2s1 | . | . | 116 | -26
COc1ccccc1C1C2=C(CC(c3ccccc3O)CC2=O)Nc2onc(C)c21 (stereo not drawn) | . | . | 103 | 10
CCc1ccccc1NC(=O)CN1C(=O)CCn2nc(-c3cccn3C)cc21 | 86 | 87 | 106 | .
C=CCN1C(=O)C2C(C(=O)NCc3ccccc3)C3C=CC2(O3)C1C(=O)NC(C)(C)C (stereo not drawn) | 127 | 97 | 105 | 3
NC(=O)c1nnc(Cc2ccc(Cl)cc2Cl)o1 | 88 | 88 | 99 | .
CC1=Nc2nc(N3CCOCC3)c(C#N)c3c4c(nc(c23)N1)N(c1cccc(Cl)c1)C(=O)C4 | 103 | 96 | . | -18
CN(C)S(=O)(=O)c1ccc2c(c1)oc(=O)n2C | 97 | 78 | 103 | 21
CC(=O)N1c2ccccc2Sc2ccccc21 | 110 | 91 | 101 | -12
CCCOc1ccc(Oc2nc(N(C)C)nc(N(C)C)n2)nn1 | 80 | 94 | 102 | .
COC(=O)c1c(-c2cccs2)csc1NC(=O)c1ccc(C)cc1 | 102 | 89 | 104 | -37
CC1CCN(C(=O)c2ccccc2NS(=O)(=O)c2ccc(F)cc2)CC1 | 115 | 72 | . | -31
Cc1cc(Oc2ccc(=O)n(C)n2)nc(Oc2ccc(=O)n(C)n2)n1 | 102 | 90 | 99 | .
Cn1c(=O)c2c(C(=O)NCCCN3CCCCC3)cc(=O)n(C)c2n(C)c1=O | . | . | 106 | -22
COc1cc(/C=C/C(=O)OCC(N)=O)ccc1OCC#N | 46* | 79* | . | -71
COc1ccc(N/C=C\C(=S)c2ccc(OC)cc2)cc1 | 84 | 76 | 109 | -13
Cc1ccc(N2CCN(C(=O)c3cnc(N4CCCCC4)c4ccccc34)CC2)c(C)c1 | 127 | 65 | 110 | .
COc1ccc(N2CC(NC(=O)C(c3ccccc3)c3ccccc3)CC2=O)cc1OC (stereo not drawn) | 126 | 88 | 100 | .
CC(=O)Nc1cccc(-c2nc(Cn3c(C)nc4ccccc4c3=O)no2)c1C | . | . | 109 | -35
CC(=O)N1c2ccccc2NC2=C(C(=O)CCC2)C1c1ccc(N(C)C)cc1 (stereo not drawn) | 114 | 88 | 102 | .
O=c1cc(CNc2ccc(F)cc2)nc2nc(-c3ccc(F)cc3)[nH]n12 | . | . | 107 | -31
CCc1ccc2c(c1)NC(c1ccc(OC)cc1)=NC(c1ccncc1)=N2 | 88 | 85 | 101 | -42
CCn1c(=NC(=O)c2ccc(C#N)cc2)sc2cccc(F)c21 | 98 | 78 | 100 | -38
CCCCn1c(=O)c2c(nc3n2CCN3c2ccc(OC)cc2)n(C)c1=O | . | . | 105 | 23
COc1ccc(-c2noc(CC(=O)N(C)Cc3ccccc3)n2)cc1 | 102 | 83 | 104 | .
O=C(Nc1cccc(NC(=O)C2CC3CCCC(C2)C3=O)n1)C1CC2CCCC(C1)C2=O (stereo not drawn) | 99 | 89 | 104 | -9
CCOc1ccccc1NC(=O)CSc1ccc(-c2cccs2)nn1 | 101 | 77 | 96 | .
CCN(C(=O)c1cc2cc(Br)cc(OC)c2oc1=O)C1CCCCC1 | 95 | 85 | . | -4
CN(C)c1ccc(-c2noc(Cc3ccc(Br)cc3)n2)cc1 | . | . | 109 | 0
COC(=O)C1=COC(C)C2CN3CCc4c([nH]c5ccccc45)C3CC12 (stereo not drawn) | 103 | 93 | 128 | -18
NC(=O)C1CCN(C(=O)c2c(F)cccc2Cl)CC1 | 134 | 87 | . | -26
O=C(c1cnn(C(=O)CSc2nc3ccccc3o2)c1)c1ccccc1O | 101 | 91 | . | -15
CC(Oc1ccccc1)C(=O)NCCc1ccc(S(N)(=O)=O)cc1 (stereo not drawn) | 94 | 85 | . | -10
O=C(NCC(c1ccc(Br)cc1)c1c[nH]c2ccccc12)c1ccccc1 (stereo not drawn) | . | . | 106 | -25
CCc1nc2cccnc2n1-c1ccc(C(=O)N2CCCCC2)cc1 | 106 | 82 | 112 | -26
CCc1ccccc1NC(=O)c1ccc2c(c1)N(Cc1cccc(Cl)c1)C(=O)c1ccccc1S2(=O)=O | 110 | 85 | 104 | -12
CCN(CC)S(=O)(=O)c1ccc2oc(C(=O)NCCc3ccc(OC)c(OC)c3)c(C)c2c1 | 96 | 80 | 104 | -2
CCCCC(=O)N(Cc1ccc(-c2ccccc2-c2nn[nH]n2)cc1)[C@H](C(=O)O)C(C)C | 94&93 | 85&99 | . | -20&1
COc1ccc(-c2noc(-c3cc4ccccc4oc3=Nc3ccc(NC(C)=O)cc3)n2)cc1 | 109 | 100 | 102 | .

Compounds shown so far with a thiophene ring, fused or not, in the order listed:
SMILES | Sa growth 42C | Sa growth 42C second temp | GIV-Gai inh | HCMV NEC inh
CCOC(=O)c1sc(/N=C/c2ccc(O)cc2O)cc1C | 103 | 95 | . | -29
Cc1sc2ncn(CC(=O)Nc3cccc(C(F)(F)F)c3)c(=O)c2c1S(=O)(=O)N1CCC(C)CC1 | 76 | 89 | 93 | -39
N#CC(c1nc2ccccc2nc1N1CCCCC1)S(=O)(=O)c1cccs1 (stereo not drawn) | 75 | 29 | 107 | 1
COC(=O)c1c(-c2cccs2)csc1NC(=O)c1ccc(C)cc1 | 102 | 89 | 104 | -37
CCOc1ccccc1NC(=O)CSc1ccc(-c2cccs2)nn1 | 101 | 77 | 96 | .

Next results follow:
SMILES | Sa growth 42C | Sa growth 42C second temp | GIV-Gai inh | HCMV NEC inh
c1ccc(CSCc2cn3ccccc3n2)cc1 | 89 | 77 | . | -10
COc1ccc(C2=C(O)C(=O)N(c3ccc(F)cc3)C2c2ccccc2Cl)cc1 (stereo not drawn) | . | . | 102 | -32
O=S(=O)(Nc1ccc(C(F)(F)F)cn1)c1ccccc1 | 78 | 78 | 103 | 31
N#Cc1cccnc1SCCOC(=O)c1cccc(Cl)c1 | 91 | 87 | 98 | -19
C(=N\n1cnnc1)/c1cccs1 | 122 | 95 | 111 | .
O=C(Nc1nc2ccccc2s1)C1CC(=O)N(c2ccccc2)C1 (stereo not drawn) | 109 | 72 | . | -10
COc1ccc(-c2ccnc3c2c(=O)n(C)c(=O)n3C)cc1OC | 111 | 90 | 101 | -27
Clc1ccc(CN2COc3ccc(Cl)cc3C2)cc1 | 94 | 92 | . | -38
CS(=O)(=O)N1CCC(C(=O)N2CCN(C/C=C/c3ccccc3)CC2)CC1 | 100 | 96 | 104 | 3
O=C(NC1CCCc2ccccc21)C1c2ccccc2Oc2ccccc21 (stereo not drawn) | 97 | 87 | 105 | .
O=C(Cn1c(SCc2cccc(F)c2)nc2ccncc21)NCc1ccco1 | 98 | 93 | 102 | 7
O=C(CCCc1ccccc1)NCCc1cn2ccccc2n1 | 95 | 83 | 104 | .
CCOc1ccc(N(C)C(=O)[C@H]2[C@@H]3C[C@@H]4[C@H]2C(=O)O[C@@H]4C3)cc1 | 89 | 79 | 99 | -9
COc1ccc(CCNC(=O)c2ccc(C3SCC(=O)N3Cc3ccccc3)cc2)cc1OC (stereo not drawn) | 85 | 87 | 106 | .
COCCCNC(=O)c1[nH]nc2c1CCc1ccccc1-2 | . | . | 100 | -20
Cc1ccc(CNC(=O)c2ccc(CSCc3ccc(C)cc3)o2)cc1 | 73 | 26 | 101 | .
CCn1cnc2c(=O)oc3ccc(S(=O)(=O)NCc4ccccc4)cc3c21 | 95 | 90 | 103&95 | 10&-3
CCOC(=O)c1c(NC(=O)c2sc(C)nc2C)sc(C(=O)OC(C)C)c1C | . | . | 117 | 7
CC(C)(C)C(=O)Nc1cccc(C(=O)OCc2cc(=O)n3nc(C4CCCCC4)sc3n2)c1 | 107 | 94 | 108 | .
Cc1ccc(C(=O)NCC(=O)O)o1 | 84 | 98 | 94 | -9
CCn1c(COc2ccccc2C(N)=O)nc2ccccc21 | 96 | 84 | 101 | .
CCOC(=O)C1C(c2ccccc2)NC(=S)NC1(O)C(F)(F)F (stereo not drawn) | 89 | 77 | 93 | .
COc1ccc(C2=NN(S(=O)(=O)c3ccccc3)C(c3ccccc3)C2)cc1OC (stereo not drawn) | . | . | 105 | -17
COc1ccc(OCC(=O)OCc2c(F)cccc2Cl)cc1 | 122 | 92 | . | -21
CC(C)(C)C1=CC(=O)c2c(ccc(C(C)(C)C)c2O)C1=O | 101 | 45 | 101 | .
O=C(O)CNC(=O)c1ccc(N2C(=O)c3ccccc3C2=O)cc1 | 105 | 94 | 99 | -62
COCCCNC(=O)CSc1nc2c(sc3ccccc32)c(=O)n1CCc1ccccc1 | 100 | 92 | 105 | .

The order is random; about 0.8% have a hit in one of these screens.
